rRNA inh HTS = inhibitors of bacterial rRNA selective over humanized ribosomes. E. coli WT GFP vs humanized-ribosome RFP mutants, fluorescence, 24 h; active compounds read low; DMSO median 0, no signal -100. GFP signal change (wild-type ribosome), % (concentration not given with the values). 350,000 tested, 1.6% active. AID 720706;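 active = significant combined selectivity score with lowered wild-type GFP, culture density cut under 30%, mutant RFP and density less affected; inactive = any of these conditions unmet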; also: one replicate is shown; some compounds called inactive have numbers as strong as hits
AF4-AF9 inh = blocks AF4 peptide binding to human AF9; 350,000 tested, 0.47% active; P42568; AID 651704; inhibition, % at 10 µM; AlphaScreen, biotin-AF4 peptide binding to FLAG-AF9;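 active = every replicate reaching a set inhibition limit, whatever the replicate mean, cut at about 25% in these data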;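 also: 0% = plate neutral control median and 100% = total signal loss; the record names both 10 and 1 µM as test concentration; the first replicate is given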
Target sequence (P42568 whole entry, looked up): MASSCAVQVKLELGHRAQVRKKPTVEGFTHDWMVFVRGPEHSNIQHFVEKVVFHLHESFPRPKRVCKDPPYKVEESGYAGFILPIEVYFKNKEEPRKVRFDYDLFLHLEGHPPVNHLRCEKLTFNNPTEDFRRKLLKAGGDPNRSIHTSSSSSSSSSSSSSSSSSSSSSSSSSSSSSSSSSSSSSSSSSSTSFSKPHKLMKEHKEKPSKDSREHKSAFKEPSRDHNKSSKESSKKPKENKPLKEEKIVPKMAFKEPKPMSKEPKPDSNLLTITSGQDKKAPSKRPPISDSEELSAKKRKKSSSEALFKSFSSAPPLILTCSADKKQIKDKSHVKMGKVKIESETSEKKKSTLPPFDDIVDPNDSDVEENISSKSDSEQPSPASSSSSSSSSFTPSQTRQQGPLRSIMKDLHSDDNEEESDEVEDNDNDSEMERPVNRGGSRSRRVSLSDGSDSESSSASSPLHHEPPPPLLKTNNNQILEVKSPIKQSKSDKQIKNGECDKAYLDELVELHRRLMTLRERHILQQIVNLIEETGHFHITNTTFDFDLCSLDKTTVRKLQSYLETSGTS
rRNA inh HTS OD600 = second read-out of rRNA inh HTS, no call of its own (marks repeat the call); OD600 change, %; measured here: OD600 growth;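 optical density of the mix in the first replicate; 0 = DMSO median and -100 = no signal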
rRNA inh HTS RFP = also measured in rRNA inh HTS; calls as there; RFP signal change, %; measured here: RFP humanized mutant strains;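 first replicate; 0 = DMSO median and -100 = no signal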
An asterisk follows results filed as active; & = joins results of further samples; ! = not active in a repeat. An excerpt (hit frequency here may not be typical).

Preview (4 entries):
`Cc1ccc(S(=O)(=O)Nc2ccc3c(c2)C(=O)N([C@@H](C)CO)C[C@H](C)[C@@H](CN(C)C(=O)Cc2ccccc2)OCCCC[C@@H](C)O3)cc1` gave rRNA inh HTS 3, AF4-AF9 inh -0.6, rRNA inh HTS OD600 -10 and rRNA inh HTS RFP 4.2.
Cc1noc(C)c1NC(=O)Nc1cccc2c1O[C@H](CN(C)C(=O)Nc1ccc(C(F)(F)F)cc1)[C@H](C)CN([C@@H](C)CO)C2=O was read as rRNA inh HTS -4, AF4-AF9 inh 0.1, rRNA inh HTS OD600 4 and rRNA inh HTS RFP -0.9.
For Cc1ccccc1-c1ccc([C@@H]2[C@@H](CO)N3C(=O)CN(S(C)(=O)=O)C[C@@H]23)cc1 the results were rRNA inh HTS -1, AF4-AF9 inh 1.4, rRNA inh HTS OD600 0 and rRNA inh HTS RFP -2.2.
Screening CCCNC(=O)N1[C@H](CO)[C@H](c2ccccc2)[C@H]1CNC(=O)C1CC1 returned rRNA inh HTS 4, AF4-AF9 inh -3.8, rRNA inh HTS OD600 14 and rRNA inh HTS RFP -1.9.

Results, from the first entry:
`Cc1ccc(S(=O)(=O)Nc2ccc3c(c2)C(=O)N([C@@H](C)CO)C[C@H](C)[C@@H](CN(C)C(=O)Cc2ccccc2)OCCCC[C@@H](C)O3)cc1` gave rRNA inh HTS 3, AF4-AF9 inh -0.6, rRNA inh HTS OD600 -10 and rRNA inh HTS RFP 4.2.
Cc1noc(C)c1NC(=O)Nc1cccc2c1O[C@H](CN(C)C(=O)Nc1ccc(C(F)(F)F)cc1)[C@H](C)CN([C@@H](C)CO)C2=O was read as rRNA inh HTS -4, AF4-AF9 inh 0.1, rRNA inh HTS OD600 4 and rRNA inh HTS RFP -0.9.
For Cc1ccccc1-c1ccc([C@@H]2[C@@H](CO)N3C(=O)CN(S(C)(=O)=O)C[C@@H]23)cc1 the results were rRNA inh HTS -1, AF4-AF9 inh 1.4, rRNA inh HTS OD600 0 and rRNA inh HTS RFP -2.2.
Screening CCCNC(=O)N1[C@H](CO)[C@H](c2ccccc2)[C@H]1CNC(=O)C1CC1 returned rRNA inh HTS 4, AF4-AF9 inh -3.8, rRNA inh HTS OD600 14 and rRNA inh HTS RFP -1.9.
O=C1CN(S(=O)(=O)Cc2ccccc2)C[C@H]2[C@@H](c3ccc(C#Cc4cccnc4)cc3)[C@H](CO)N12 was read as rRNA inh HTS -1, AF4-AF9 inh -11, rRNA inh HTS OD600 13 and rRNA inh HTS RFP 4.8.
Screening C[C@H]1CN([C@@H](C)CO)C(=O)Cc2cc(NC(=O)Nc3ccc(C(F)(F)F)cc3)ccc2O[C@@H]1CN(C)S(C)(=O)=O returned rRNA inh HTS -2, AF4-AF9 inh 3.2, rRNA inh HTS OD600 0 and rRNA inh HTS RFP -2.8.
Screening O=C1CNC[C@@H]2[C@H](c3ccc(C#CC4CCCCC4)cc3)[C@@H](CO)N12 returned rRNA inh HTS 1, AF4-AF9 inh 4.9, rRNA inh HTS OD600 -3 and rRNA inh HTS RFP 1.2.
For COc1ccc2c3c(n(C)c2c1)[C@H](CO)N(C(C)=O)CC31CN(C(=O)NC(C)C)C1 the results were rRNA inh HTS 0, AF4-AF9 inh -16, rRNA inh HTS OD600 7 and rRNA inh HTS RFP -1.6.
Screening O=C1CN(Cc2ccc(F)cc2)C[C@H]2[C@@H](c3ccc(-c4ccccc4F)cc3)[C@H](CO)N12 returned rRNA inh HTS -3, AF4-AF9 inh 7.5, rRNA inh HTS OD600 -35 and rRNA inh HTS RFP 2.7.
C[C@@H](NC(=O)[C@H]1[C@H](CO)[C@H]2Cn3c(cccc3=O)[C@@H]1N2CCC(F)(F)F)c1ccccc1 was read as rRNA inh HTS 1, AF4-AF9 inh -1.0, rRNA inh HTS OD600 2 and rRNA inh HTS RFP -1.4.
Screening C[C@H](CO)N1C[C@H](C)[C@@H](CN(C)Cc2ccccc2)OCCCC[C@H](C)Oc2ccc(NS(=O)(=O)c3cn(C)cn3)cc2C1=O returned rRNA inh HTS 0, AF4-AF9 inh -14, rRNA inh HTS OD600 5 and rRNA inh HTS RFP -5.5.
`O=C(C[C@@H]1C[C@H]2c3cc(NC(=O)c4cccnc4)ccc3O[C@H]2[C@H](CO)O1)NC1CCCC1` gave rRNA inh HTS -1, AF4-AF9 inh -1.9, rRNA inh HTS OD600 -3 and rRNA inh HTS RFP 2.2.
`C[C@@H]1CN([C@@H](C)CO)C(=O)c2c(c3ccccc3n2C)-c2ccccc2CO[C@@H]1CN(C)CC1CCCCC1` gave rRNA inh HTS 0, AF4-AF9 inh 12, rRNA inh HTS OD600 -16 and rRNA inh HTS RFP 7.5.
O=C(Nc1ccc2c(c1)OCO2)N1C[C@@H]2N[C@H](C1)C2c1ccc(C=Cc2ccccc2)cc1 (some centres not stated) was read as rRNA inh HTS -60&-60, AF4-AF9 inh 56*!, rRNA inh HTS OD600 -72&-76 and rRNA inh HTS RFP -16&-16.
For O=C(Nc1ccccc1F)N1CC(=O)N2[C@H](C1)[C@H](c1ccc(-c3cccnc3)cc1)[C@@H]2CO the results were rRNA inh HTS 1, AF4-AF9 inh -7.1, rRNA inh HTS OD600 2 and rRNA inh HTS RFP 2.0.
`C[C@@H]1CCCCO[C@H](CN(C)C(=O)CCCN(C)C)[C@H](C)CN([C@@H](C)CO)C(=O)c2cc(NS(=O)(=O)c3cccs3)ccc2O1` gave rRNA inh HTS 1, AF4-AF9 inh -0.7, rRNA inh HTS OD600 -5 and rRNA inh HTS RFP 3.0.
`COc1ccc(NC(=O)Nc2ccc3c(c2)CC(=O)N([C@@H](C)CO)C[C@H](C)[C@H](CN(C)C(=O)NC(C)C)O3)cc1` gave rRNA inh HTS 2, AF4-AF9 inh -2.7, rRNA inh HTS OD600 5 and rRNA inh HTS RFP -2.4.
`O=C(C[C@H]1C[C@H]2c3cc(NS(=O)(=O)c4ccc(F)cc4)ccc3O[C@H]2[C@H](CO)O1)NCc1ccc(-c2ccccc2)cc1` gave rRNA inh HTS -4, AF4-AF9 inh 0.2, rRNA inh HTS OD600 -16 and rRNA inh HTS RFP 4.5.
`O=C(O)C[C@H]1CC[C@@H](NC(=O)CCN2CCCCC2)[C@@H](CO)O1` gave rRNA inh HTS 2, AF4-AF9 inh -3.9, rRNA inh HTS OD600 -4 and rRNA inh HTS RFP -2.0.
For O=C(O)c1cccc2c1-c1ccc(Cl)cc1C2 the results were rRNA inh HTS -10, AF4-AF9 inh 0.4, rRNA inh HTS OD600 -14 and rRNA inh HTS RFP 2.5.
For CCCCCCn1c(=O)n2n(c1=O)C[C@]1(OC(=O)NCc3ccc(OC)c(OC)c3)CN(S(=O)(=O)c3ccc(C)cc3)C[C@]1(O)C2 the results were rRNA inh HTS 2, AF4-AF9 inh -0.2, rRNA inh HTS OD600 -19 and rRNA inh HTS RFP 3.2.
O=C(Nc1nccs1)[C@H]1[C@H](CO)[C@H]2Cn3c(ccc(-c4cccnc4)c3=O)[C@H]2N1CC1CC1 was read as rRNA inh HTS -1, AF4-AF9 inh -1.6, rRNA inh HTS OD600 5 and rRNA inh HTS RFP -1.6.
For C[C@H](CO)N1C[C@H](C)[C@H](CN(C)C(=O)C2CCCCC2)OCCCC[C@H](C)Oc2ccc(NC(=O)Cc3ccccc3)cc2C1=O the results were rRNA inh HTS -5, AF4-AF9 inh -1.8, rRNA inh HTS OD600 -10 and rRNA inh HTS RFP 3.5.
Screening COc1cccc(CNC(=O)COC(=O)CCS(=O)(=O)c2ccc(C)cc2)c1 returned rRNA inh HTS 2, AF4-AF9 inh 1.8, rRNA inh HTS OD600 2 and rRNA inh HTS RFP -0.7.
C[C@H]1CCCCO[C@H](CN(C)S(=O)(=O)c2cn(C)cn2)[C@@H](C)CN([C@@H](C)CO)C(=O)c2cc(NC(=O)Nc3ccc(F)cc3)ccc2O1 was read as rRNA inh HTS 1, AF4-AF9 inh -0.1, rRNA inh HTS OD600 -3 and rRNA inh HTS RFP -0.1.
`O=C(C[C@H]1C=C[C@@H](NS(=O)(=O)c2ccc(F)cc2)[C@H](CO)O1)NCc1ccccc1F` gave rRNA inh HTS -4, AF4-AF9 inh -3.4, rRNA inh HTS OD600 -10 and rRNA inh HTS RFP -0.6.
For CN1CCN(C(=O)C[C@H]2CC[C@@H]3[C@H](COc4ccc(NC(=O)C5CCC5)cc4C(=O)N3C)O2)CC1 the results were rRNA inh HTS 2, AF4-AF9 inh -16, rRNA inh HTS OD600 12 and rRNA inh HTS RFP -1.1.
Cc1ccc(S(=O)(=O)N(C)C[C@H]2OCCCC[C@H](C)Oc3ccc(NC(=O)c4ccncc4)cc3C(=O)N([C@@H](C)CO)C[C@@H]2C)cc1 was read as rRNA inh HTS -3, AF4-AF9 inh 1.3, rRNA inh HTS OD600 -1 and rRNA inh HTS RFP 2.3.
For CN1CCN(C(=O)C[C@H]2CC[C@@H]3[C@H](COC[C@H](O)CN3C(=O)C3CC3)O2)CC1 the results were rRNA inh HTS 3, AF4-AF9 inh -1.0, rRNA inh HTS OD600 -2 and rRNA inh HTS RFP -2.1.
C[C@@H]1CN([C@H](C)CO)C(=O)c2ccccc2-c2ccccc2CO[C@@H]1CN(C)C(=O)Nc1ccc(-c2ccccc2)cc1 was read as rRNA inh HTS 0, AF4-AF9 inh 4.0, rRNA inh HTS OD600 0 and rRNA inh HTS RFP 0.9.
`O=C(c1ccc(F)cc1)N1CC(=O)N2[C@@H](CO)[C@@H](c3ccc(C4=CCCC4)cc3)[C@@H]2C1` gave rRNA inh HTS 0, AF4-AF9 inh -1.2, rRNA inh HTS OD600 -12 and rRNA inh HTS RFP 3.2.
Screening COC(=O)[C@@H]1[C@@H](CO)[C@@H]2Cn3c(ccc(C4=CCCCC4)c3=O)[C@@H]2N1Cc1cccnc1 returned rRNA inh HTS 1, AF4-AF9 inh -4.1, rRNA inh HTS OD600 5 and rRNA inh HTS RFP 0.0.
`C[C@@H]1CCCCO[C@H](CN(C)S(=O)(=O)c2ccc(F)cc2)[C@H](C)CN([C@H](C)CO)C(=O)c2cc(NC(=O)C3CCCCC3)ccc2O1` gave rRNA inh HTS -2, AF4-AF9 inh 0.4, rRNA inh HTS OD600 -3 and rRNA inh HTS RFP 1.4.
`COc1ccccc1S(=O)(=O)N[C@H]1CC[C@@H](CC(=O)NCc2cc(F)cc(F)c2)O[C@H]1CO` gave rRNA inh HTS 1, AF4-AF9 inh 0.0, rRNA inh HTS OD600 -7 and rRNA inh HTS RFP -3.2.
Screening COc1ccccc1NC(=O)N1CC(=O)N2[C@H](CO)[C@@H](c3ccc(C#CC4CC4)cc3)[C@@H]2C1 returned rRNA inh HTS -2, AF4-AF9 inh 5.1, rRNA inh HTS OD600 -32 and rRNA inh HTS RFP 23.
Screening COc1ccc(NC(=O)Nc2cccc3c2O[C@@H](CN(C)Cc2ccc4c(c2)OCO4)[C@H](C)CN([C@H](C)CO)C3=O)cc1 returned rRNA inh HTS -5, AF4-AF9 inh 5.0, rRNA inh HTS OD600 -11 and rRNA inh HTS RFP 1.1.
`C/C=C/c1ccc([C@@H]2[C@H](CO)N(CC3CCOCC3)C23CN(C(=O)COC)C3)cc1` gave rRNA inh HTS 6, AF4-AF9 inh 0.7, rRNA inh HTS OD600 23 and rRNA inh HTS RFP 0.9.
N#Cc1cccc(-c2ccc(C3[C@H]4CNC[C@@H]3N4Cc3ccc4c(c3)OCO4)cc2)c1 (some centres not stated) was read as rRNA inh HTS 1&-39, AF4-AF9 inh -2.5&-2.1, rRNA inh HTS OD600 4&-55 and rRNA inh HTS RFP 3.6&-4.5.
Screening O=C1CN(S(=O)(=O)Cc2ccccc2)C[C@H]2[C@H](c3ccc(C#Cc4ccccc4)cc3)[C@H](CO)N12 returned rRNA inh HTS -4, AF4-AF9 inh -1.9, rRNA inh HTS OD600 -22 and rRNA inh HTS RFP 5.2.
Screening CC(=O)N(C)C[C@@H]1[C@H](c2ccc(-c3cccnc3)cc2)[C@H](CO)N1C(=O)C1CC1 returned rRNA inh HTS 1, AF4-AF9 inh -4.5, rRNA inh HTS OD600 4 and rRNA inh HTS RFP -0.9.
For Cc1noc(NS(=O)(=O)c2ccc(NC(=O)c3cc(S(=O)(=O)Nc4ccc(F)cc4)ccc3Cl)cc2)c1C the results were rRNA inh HTS -9, AF4-AF9 inh -0.3, rRNA inh HTS OD600 -6 and rRNA inh HTS RFP 0.1.
Screening C[C@H](CO)N1C[C@H](C)[C@@H](CN(C)Cc2ccncc2)Oc2ccc(NC(=O)Nc3ccc4c(c3)OCO4)cc2C1=O returned rRNA inh HTS 3, AF4-AF9 inh -19, rRNA inh HTS OD600 -7 and rRNA inh HTS RFP 1.9.

Source: PubChem BioAssay
